# Cruzain Triton: inhibitors of Trypanosoma cruzi cruzain with detergent; P25779; purified cruzain, Z-FR-AMC fluorescence, 0.01% Triton; Potency, µM, without a hit: max response, negative = inhibition, hits mostly inhibitors; 0.43% of 200,000 active;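 also: plate controls were neutral wells for no effect and buffer without enzyme for full effect; nearly all actives have a fitted effect of over 40% in size; top concentration of the series not given in the record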
# Target sequence (P25779 123-467 limits assumed): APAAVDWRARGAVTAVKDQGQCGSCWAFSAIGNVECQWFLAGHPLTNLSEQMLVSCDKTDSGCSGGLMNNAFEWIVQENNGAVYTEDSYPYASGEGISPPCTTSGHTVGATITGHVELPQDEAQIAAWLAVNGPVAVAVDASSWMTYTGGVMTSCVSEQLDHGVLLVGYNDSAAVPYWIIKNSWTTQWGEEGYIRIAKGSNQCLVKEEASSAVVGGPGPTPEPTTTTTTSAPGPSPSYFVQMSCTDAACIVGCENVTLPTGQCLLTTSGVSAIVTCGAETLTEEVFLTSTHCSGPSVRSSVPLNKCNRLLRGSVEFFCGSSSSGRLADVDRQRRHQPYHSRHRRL
#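 Compounds were screened in titration against cruzain (1.5 nM) with 0.01% Triton X-100 to counter colloidal aggregation. Activity was the AMC fluorescence increase over 60 s after adding 2 uM Z-FR-AMC at pH 5.5.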
# SARS PLpro yeast: blocks SARS-CoV papain-like protease in a yeast assay | S. cerevisiae expressing SARS-CoV PLpro, growth rescue; control for the full effect not named in the record | Potency, µM (titrated, usually from 32.9 µM), inactives show at the highest dose activity, positive = growth rescue | 0.19% of 330,000 active | AID 485353; active means well fitted rising curve with a large enough effect; inconclusive means small, poorly fitted or top-dose-only effect; inactive means no such curve, though single readings can be large or run the other way; also: 0% is about no effect; nearly all actives have a fitted effect of over 55% in size; growth read by luminescence after 48 h
# NS1 inh: blocks influenza NS1 protein function; S. cerevisiae slowed by influenza A NS1, growth recovery by OD600; Potency, µM (highest dose often 46.1 µM), for the others: top-dose activity, positive = more growth; 0.4% of 270,000 active; active means well fitted rising curve with a large enough effect; inconclusive means small, poorly fitted or top-dose-only effect; inactive means no such curve, though single readings can be large or run the other way; also: nearly all actives have a fitted effect of over 50% in size
#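 Read-out: OD600 growth recovery of NS1-expressing budding yeast. Cells grown overnight at 30C in -URA glucose medium, washed, resuspended and diluted 1:100 in 2% galactose assay medium, pH 6.0. Same strain lacking NS1 served as positive control.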
# Marburg entry inh: inhibitors of Marburg virus binding or cell entry; Potency, µM (top dose mostly 37.8 µM), inactives show at the top dose activity change, negative = inhibition, actives largely listed as inhibitors; 1.8% of 300,000 active; AID 540276; Marburg virus pseudotyped entry inhibition, cell reporter; control for the full effect not named in the record; about a third of the inactives were read at about 46 µM; active = well fitted inhibition curve with a large enough effect; inconclusive = small, poorly fitted or top-dose-only effect, or effect the other way; inactive = flat fitted curve, though single readings scatter; tested in HEK293 cells; about a fifth of its hits are not listed in these tables; also: % is scaled to controls: 0 for no effect and ±100 for the full control effect; luciferase read-out
# RE007 growth inh: less growth of the S. pombe RE007 Vpr strain | 0.21% of 360,000 active | S. pombe RE007 Vpr strain, BacTiter-Glo ATP luminescence, 24 h; control for the full effect not named in the record | AID 651644 | Potency, µM (titrated, usually from 92.2 µM), for inactives: top-dose activity change, negative = less growth; active = well fitted falling curve with a large enough effect; inconclusive = small, poorly fitted or top-dose-only effect; inactive = no such curve, though single readings can be large or run the other way;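 also: % is scaled to controls: 0 for no effect and ±100 for the full control effect; nearly all actives have a fitted effect of over 50% in size; the assay follows cell death caused by Vpr and the record does not say whether a fall means rescue or toxicity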
#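 Fission yeast RE007 carrying one integrated HIV-1 vpr copy, seeded at OD 0.01 in PMG+AL medium with 23 nL pinned compound. Grown 24 h at 30 degrees; viability read by BacTiter-Glo luminescence after 5 min.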
# 2A StopGo: lowers the luciferase signal of an FMDV 2A StopGo reporter; 1.2% of 410,000 active; human cells with a luciferase reporter of 2A StopGo recoding; control for the full effect not named in the record; Potency, µM (top dose mostly 57.9 µM), for the others: top-dose signal change, negative = less light; active = well fitted falling curve with a large enough effect; inconclusive = small, poorly fitted or top-dose-only effect; inactive = no such curve, though single readings can be large or run the other way; tested in HEK293T cells; also: % is scaled to controls: 0 for no effect and ±100 for the full control effect; nearly all actives have a fitted effect of over 45% in size; luciferase light after 4 h
# Cruzain noTriton: cruzain (T. cruzi) inhibition without detergent. P25779. purified cruzain, Z-FR-AMC fluorescence, no detergent. Potency, µM, inactives show max response, negative = inhibition, most hits filed as inhibitors. 2.3% of 200,000 active;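 also: plate controls were enzyme without inhibitor for no effect and buffer without enzyme for full effect; nearly all actives have a fitted effect of over 40% in size; top concentration of the series not given in the record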
#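 Detergent-free condition (0.00005% Triton X-100) in acetate buffer pH 5.5 with DTT. 1.5 nM enzyme and compound were pre-mixed 15 min, then 2 uM Z-FR-AMC substrate added; reaction progress from fluorescence change between first and third reads (60 s).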
# LASV entry inh: blocks Lassa virus binding to or entry into cells | Potency, µM (top dose mostly 37.9 µM), without a hit: at the top dose activity change, negative = inhibition, most hits filed as inhibitors | 1.2% of 300,000 active | Lassa virus pseudotype entry inhibition, cell reporter; control for the full effect not named in the record; active means well fitted inhibition curve with a large enough effect; inconclusive means small, poorly fitted or top-dose-only effect, or effect the other way; inactive means flat fitted curve, though single readings scatter; tested in HEK293 cells; also: % is scaled to controls: 0 for no effect and ±100 for the full control effect; nearly all actives have a fitted effect of over 50% in size; luciferase read-out
# * = called active by the depositor; ? = inconclusive; / = no result given; [ ] = dose if it differs, or a comment. Unless noted, calls follow the shape of the dose curve; as a rule, active = well fitted curve in the direction sought with a large enough effect; inconclusive = small, poorly fitted or top-dose-only effect, or another doubt; inactive = no such curve, though single readings can be large; an effect the other way counts as inactive or inconclusive. Potency is read from the fitted curve at half-maximal effect.
# Every second line gives: Cruzain Triton	SARS PLpro yeast	NS1 inh	Marburg entry inh	RE007 growth inh	2A StopGo	Cruzain noTriton	LASV entry inh
Cc1c(Cl)cccc1NC(=O)CSc1ncnc2c1cnn2CCc1ccccc1
    -0.2%	4%	-10%	-27%	-11%	-19%	-15%	-11%
CC(=O)c1ccc(NC(=O)C2CCCNC2=O)cc1 (stereo not given)
    3.9%	-2%	4%	?	3%	-9%	3%	12%
COc1ccc(OC)c(NC(=O)c2cc3cc(C)ccc3n2C)c1
    -10%	/	/	14%[46.1 µM]	/	-8%	3%	6%[46.1 µM]
CC1CN(CCCCOc2ccc(F)cc2)CC(C)O1 (stereo not given)
    /	0%	-3%	5%[46.1 µM]	-5%	-13%	/	8%
O=c1c2ccccc2oc2ccc(NCCCN3CCOCC3)cc12
    /	5%	1%	/	-22%	21%	/	/
CCOc1ccc(N(CC(=O)NCC2CCCO2)S(=O)(=O)c2ccc(SC)cc2)cc1 (stereo not given)
    -1.0%	-1%	3%	-10%	-14%	36%[activator]	?	-11%
Cc1cc(-c2nn(-c3ccccc3F)cc2CN2CCC(O)CC2)c(C)s1
    /	-2%	-1%	/	-4%	-2%	/	/
COc1ccc(C(=O)N2CCN(C(C)=O)CC2)cc1S(=O)(=O)N1CCOCC1
    /	0%	/	?	11%	-16%	/	-24%
CC(=O)N=c1cccc(NC(C)=O)n1O
    -3.9%	-1%	9%	10%	-1%	/	0%	9%
COc1cc(/C=C(/NC(=O)c2ccccc2)C(=O)Nc2ccccc2)c([N+](=O)[O-])cc1OC
    1.5%	1%	10%	3%	-7%	-15%	1%	8%
Cc1sc2ncn(CC(=O)N3CCN(c4ccccn4)CC3)c(=O)c2c1S(=O)(=O)N1CCC(C)CC1
    /	-12%	3%	-2%[46.1 µM]	-7%	-1%	/	?
c1ccn2c(Cc3nnc4ccccn34)nnc2c1
    5.4%	1%	-2%	?	-20%	14%	6%	-13%
Cc1cc(SCC(=O)c2ccccc2)n2ncc(-c3ccccc3)c2n1
    /	-2%	-34%	/	6%	56%[activator]	/	/
CS(=O)(=O)c1ccc(Cl)c(NC(=O)CSc2nc3ccccc3c(=O)n2CCCN2CCOCC2)c1
    -5.3%	-10%	0%	-29%	-1%	-6%	0%	0%
Cc1ccc(N2CC(C(=O)N3CCc4ccccc43)CC2=O)cc1 (stereo not given)
    1.2%	1%	-2%	21%	24%	/	?	12%
CCCn1c(N2CCN(Cc3ccc(Cl)cc3)CC2)nc2ccccc21
    /	-2%	-36%	/	1%	-28%	/	/
C=CCn1c(O)c(C(C)=NCCC2=CCCCC2)c(=O)[nH]c1=O
    -0.5%	6%	2%	-17%	21%	-12%	-7%	-21%
Cc1cccc(NC(=O)Cn2c(=O)n(-c3ccccc3Cl)c(=O)c3c(C)c(C(=O)N(C)C)sc32)c1
    0.7%	/	/	/	/	-3%	?	7%[46.1 µM]
O=C(Oc1cccc2ccccc12)c1ccco1
    -4.5%	-2%	-2%	3%	-19%	-1%	-3%	-14%
CCn1c(SCc2nc3ccccc3s2)nnc1-c1ccccc1
    7.3%	10%	-9%	-3%	4%	19%	-11%	23%
O=c1oc2ccccc2nc1/C=C(O)/C=C/c1ccc(F)cc1
    -28%	-53%	-17%	10%	?	-20%	-16%	9%
CCOC(=O)c1c(NC(=O)COc2ncnc3ccccc23)sc(C)c1C
    -5.5%	-16%	14%	1%	6%	0%	20%	1%
COc1ccc(-n2c(=S)[nH]c3cc(C(=O)Nc4cc(C(N)=O)ccc4OC)ccc3c2=O)c(OC)c1
    /	-4%	-2%	6%[46.1 µM]	-9%	-8%	/	2%
COC(=O)c1ccccc1NC(=O)N1CCN(C(=O)c2ccco2)CC1
    3.3%	?	-4%	0%	21%	-13%	-5%	0%
c1ccc(C2Oc3ccccc3C3CC(c4cccs4)=NN32)cc1 (stereo not given)
    -13%	/	-41%	?	?	33%[activator]	-3%	1%
N#C/C(=C\c1ccco1)Sc1nc2ccccc2s1
    -23%	-10%	-8%	?	-6%	30%	-4%	3%
O=C(C1CCCN(S(=O)(=O)c2ccccc2)C1)N1CCN(c2ncccn2)CC1 (stereo not given)
    0.3%	-18%	-6%	?	9%	?	14%	-7%
O=C(CNC(=O)/C(=C\c1ccc(Br)cc1)NC(=O)c1ccccc1)OCc1ccccc1
    10µM*	-6%	-24%	?	7%	-7%	?	3%
COc1cc2c(cc1OC)-c1cc(Nc3ccc(N(C)C)cc3)nc(=O)n1CC2
    /	0%	-4%	-24%[46.1 µM]	10%	7%	/	?
COc1cccc(-n2nnc3c(=O)n(CC(=O)NC4CCCC4)cnc32)c1
    1.5%	5%	-1%	-7%	5%	8%	-5%	-24%
CSc1nc2ccccc2n1C(=O)NC1CCCCC1
    0.0%	-1%	-56%	0%	-9%	?	7%	3%
Cc1ccccc1NC(=O)CCN1CCN(C/C=C/c2ccccc2)CC1
    -3.7%	-3%	5%	2%	-13%	-26%	-2%	-2%
O=C(c1ccccn1)N1CCN(c2ccc(C(F)(F)F)cn2)CC1
    -2.9%	13%	-7%	3%	-2%	-18%	-1%	8%
CCOc1ccc(OCCNC(=O)c2oc3ccccc3c2COC)cc1
    /	-18%	/	-22%	12%	?	/	-12%
CCOC(=O)C1CCN(CC(=O)c2c(C)n(C)c3ccc(OC)cc23)CC1
    /	1%	3%	/	2%	-24%	/	/
Cc1noc(C(=O)Nc2ccc(F)cc2F)c1Cl
    /	0%	-3%	13%[46.1 µM]	-16%	19%	/	17%[46.1 µM]
O=C1CSC(c2ccccn2)N1c1cccc(Cl)c1 (stereo not given)
    4.8%	0%	-7%	-3%	-2%	-12%	-2%	1%
Cc1nc2scc(C)n2c(=O)c1S(=O)(=O)N1CCN(c2ccc(F)cc2)CC1
    /	-2%	6%	/	-3%	-10%	/	/
O=C(/C=C/c1ccco1)NC(=S)NNC(=O)c1ccco1
    -8.8%	-37%	-11%	0%	1%	/	-22%	0%
CCc1ccc(NC(=O)CSc2nc3ccccc3c(=O)n2CCCC(=O)NCCCN2CCOCC2)cc1
    /	0%	/	?	-12%	-17%	/	?
Cc1cc(=O)oc2c(C(=O)/C=C\c3cccs3)c(O)ccc12
    -12%	-61%	-23%	-14%	10%	?	-28%	?
CN(C)S(=O)(=O)c1cccc(-c2nnc(SCc3ccc4c(c3)OCCO4)o2)c1
    1.9%	3%	?	-11%	-14%	18%	-16%	-12%
CC(C)C(NC(=O)CN(c1ccc2c(c1)OCCO2)S(=O)(=O)c1ccccc1)C(C)C
    /	/	/	?	9%	-3%	/	20%[46.1 µM]
CCN(CCO)C1CC(=O)N(c2ccccc2C)C1=O (stereo not given)
    4.7%	-33%	-105%	-10%	22µM*	-5%	5%	3%
CCCCn1nnnc1SCC(=O)c1ccccc1F
    /	-7%	-10%	?	-2%	45%[activator]	/	6%
O=C(CSc1ccccc1)N1CCCC(N2CCN(c3ccccc3)CC2)C1 (stereo not given)
    /	0%	-3%	-25%[46.1 µM]	-3%	-12%	/	-6%[46.1 µM]
CCCN(C(=O)c1cnccn1)c1c(N)n(Cc2ccccc2)c(=O)[nH]c1=O
    /	-4%	/	8%	3%	-5%	/	27%
O=C(O)c1cccc(NC(=O)c2ccc(COc3ccc(Cl)cc3)cc2)c1
    /	-3%	-12%	/	0%	41%[activator]	/	/
CC(=O)N1c2ccc(S(=O)(=O)Nc3ccc(Cl)cc3C)cc2CC1C (stereo not given)
    -5.3%	/	/	/	/	-27%	-11%	-18%[46.1 µM]
COc1cccc(-c2cc(C(=O)N/N=C/c3cccc(OC)c3OC)c3ccccc3n2)c1
    /	/	/	-19%	-5%	5%	/	?
COc1ccc(NC(=O)CSc2nnc3scc(-c4ccc(Cl)cc4)n23)cc1
    1.1%	/	/	23%[46.1 µM]	/	-17%	2%	-21%[46.1 µM]
CC(=O)Nc1ccc(NC(=O)c2cc3sccc3n2Cc2ccc(F)cc2)cc1
    2.4%	/	/	59%[46.1 µM]	/	16%	24%	/
COc1cccc(NC(=O)c2c([N+](=O)[O-])cnn2C)c1
    /	0%	-4%	?	-2%	-8%	/	-5%[46.1 µM]
CCOC(=O)N1CCN(C(=O)C2CCCCC2)CC1
    6.8%	0%	8%	16%[46.1 µM]	-20%	3%	13%	0%
CCOc1cc(C2NC(=O)NC(c3ccccc3)=C2C(=O)c2ccccc2)c(Br)cc1OCC(=O)O (stereo not given)
    /	1%	20%	?	-10%	-1%	/	18%[46.1 µM]
COc1ccc(-c2csc(NC(=O)c3ccccc3F)n2)cc1
    /	4%	-19%	/	12%	60%[activator]	/	/
CC1CCCN(C(=O)C2CCN(CC3CC=CCC3)CC2)C1 (stereo not given)
    1.6%	-2%	-12%	5%	4%	-1%	1%	-3%
O=C(CSc1cn(Cc2ccccc2)c2ccccc12)NCc1ccc(F)cc1
    -3.7%	-2%	17%	5%	24%	-18%	-2%	1%
C[n+]1cccc(C(=O)NNC(=O)C23CC4CC(CC(C4)C2)C3)c1
    /	3%	/	-5%[46.1 µM]	-1%	-12%	/	15%
Cc1cc(C)c(NC(=O)Cn2nnc3sc4c(c3c2=O)CCC(C(C)(C)C)C4)c(C)c1 (stereo not given)
    -0.2%	/	/	-1%[46.1 µM]	/	-14%	10%	-1%[46.1 µM]

# Carrying on.
# Every second line gives: Cruzain Triton	SARS PLpro yeast	NS1 inh	Marburg entry inh	RE007 growth inh	2A StopGo	Cruzain noTriton	LASV entry inh
Cc1ccc2sc(N(CCCN(C)C)C(=O)c3ccc(S(=O)(=O)N4CCOCC4)cc3)nc2c1C
    /	-2%	/	-22%	9%	-21%	/	20%
O=C(NC1CCCCC1)c1cc(-c2cccs2)on1
    /	17%	-5%	-15%[46.1 µM]	15%	30%	/	?
Cc1cc([N+](=O)[O-])nn1CC(=O)N1CCc2ccccc2C1
    -0.5%	12%	0%	-16%	1%	0%	-2%	2%
Clc1cccc(-c2ccc(/C=N/n3cnnc3)o2)c1
    -7.6%	-9%	-16%	13%	3%	/	-7%	3%
